Screening results (PubChem BioAssay)
Cruzain inh Det – inhibitors of Trypanosoma cruzi cruzain with detergent. P25779. purified cruzain, Z-FR-AMC fluorescence, 0.01% Triton. Potency, µM, inactives show max response, negative = inhibition, most hits filed as inhibitors. 200,000 compounds, 0.43% hits; active = well fitted curve in the direction sought with a large enough effect; inconclusive = small, poorly fitted or top-dose-only effect, or another doubt; inactive = no such curve, though single readings can be large; an effect the other way counts as inactive or inconclusive;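 also: plate controls were neutral wells for no effect and buffer without enzyme for full effect; nearly all actives have a fitted effect of over 40% in size; top concentration of the series not given in the record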
Target sequence (P25779 123-467 limits assumed): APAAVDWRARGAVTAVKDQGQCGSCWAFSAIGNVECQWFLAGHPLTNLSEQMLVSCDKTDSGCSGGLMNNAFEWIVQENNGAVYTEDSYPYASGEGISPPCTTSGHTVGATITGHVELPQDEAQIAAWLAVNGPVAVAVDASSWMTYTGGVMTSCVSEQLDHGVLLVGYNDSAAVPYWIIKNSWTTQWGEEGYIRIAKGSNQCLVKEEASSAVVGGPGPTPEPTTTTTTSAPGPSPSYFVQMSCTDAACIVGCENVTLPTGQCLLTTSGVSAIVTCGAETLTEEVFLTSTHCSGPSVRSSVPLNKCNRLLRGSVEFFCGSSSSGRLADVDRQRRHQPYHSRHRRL
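Purified cruzain (1.5 nM final) was preincubated with compounds for 15 min at room temperature in 100 mM sodium acetate pH 5.5, 5 mM DTT, 0.01% Triton X-100. Reaction started with 2 uM Z-FR-AMC; AMC fluorescence change over 60 s gave activity.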
LASV entry inh – Lassa virus entry inhibition; Lassa virus pseudotype entry inhibition, cell reporter; control for the full effect not named in the record; Potency, µM (highest dose often 37.9 µM), for the others: at the highest dose activity change, negative = inhibition, usual class: inhibitors; 300,000 compounds, 1.2% hits; active means well fitted inhibition curve with a large enough effect; inconclusive means small, poorly fitted or top-dose-only effect, or effect the other way; inactive means flat fitted curve, though single readings scatter; tested in HEK293 cells; also: % is scaled to controls: 0 for no effect and ±100 for the full control effect; nearly all actives have a fitted effect of over 50% in size; luciferase read-out
NS1 function inh – influenza NS1 inhibition; S. cerevisiae slowed by influenza A NS1, growth recovery by OD600; Potency, µM (highest dose often 46.1 µM), without a hit: at the highest dose activity, positive = more growth; 270,000 compounds, 0.4% hits; also: actives are rising curves; nearly all actives have a fitted effect of over 50% in size
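Growth recovery, yeast-based: influenza A NS1 expressed in S. cerevisiae causes slow growth, and suppressors are detected by OD600. The parent strain without NS1 is used as positive control.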
Marburg entry inh – blocks Marburg virus binding to or entry into cells | 300,000 compounds, 1.8% hits | AID 540276 | Potency, µM (highest dose often 37.8 µM), inactives show at the highest dose activity change, negative = inhibition, actives largely listed as inhibitors | Marburg virus pseudotyped entry inhibition, cell reporter; control for the full effect not named in the record; about a third of the inactives were read at about 46 µM; active = well fitted inhibition curve with a large enough effect; inconclusive = small, poorly fitted or top-dose-only effect, or effect the other way; inactive = flat fitted curve, though single readings scatter; tested in HEK293 cells; about a fifth of its hits are not listed in these tables; also: % is scaled to controls: 0 for no effect and ±100 for the full control effect; luciferase read-out
Cruzain noTriton – blocks cruzain activity in detergent-free assay | P25779 | purified cruzain, Z-FR-AMC fluorescence, no detergent | Potency, µM, without a hit: max response, negative = inhibition, actives largely listed as inhibitors | 200,000 compounds, 2.3% hits | AID 1476; active = well fitted curve in the direction sought with a large enough effect; inconclusive = small, poorly fitted or top-dose-only effect, or another doubt; inactive = no such curve, though single readings can be large; an effect the other way counts as inactive or inconclusive;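 also: plate controls were enzyme without inhibitor for no effect and buffer without enzyme for full effect; nearly all actives have a fitted effect of over 40% in size; top concentration of the series not given in the record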
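Purified cruzain at 1.5 nM, pre-incubated 15 min with compound at room temperature in 100 mM sodium acetate pH 5.5, 5 mM DTT, 0.00005% Triton X-100. Reaction started with 2 uM Z-FR-AMC; AMC fluorescence increase over 60 s gives rate.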
SARS PLP yeast – blocks SARS-CoV papain-like protease in a yeast assay; S. cerevisiae expressing SARS-CoV PLpro, growth rescue; control for the full effect not named in the record; Potency, µM (series often up to 32.9 µM), for the others: at the top dose activity, positive = growth rescue; 330,000 compounds, 0.19% hits; AID 485353; also: 0% is about no effect; nearly all actives have a fitted effect of over 55% in size; growth read by luminescence after 48 h
2A StopGo – FMDV 2A StopGo reporter, luciferase signal; 410,000 compounds, 1.2% hits; human cells with a luciferase reporter of 2A StopGo recoding; control for the full effect not named in the record; Potency, µM (series often up to 57.9 µM), inactives show top-dose signal change, negative = less light; active = well fitted falling curve with a large enough effect; inconclusive = small, poorly fitted or top-dose-only effect; inactive = no such curve, though single readings can be large or run the other way; tested in HEK293T cells; also: % is scaled to controls: 0 for no effect and ±100 for the full control effect; nearly all actives have a fitted effect of over 45% in size; luciferase light after 4 h
RE007 growth inh – less growth of the S. pombe RE007 Vpr strain; Potency, µM (doses to about 92.2 µM), without a hit: at the top dose activity change, negative = less growth; S. pombe RE007 Vpr strain, BacTiter-Glo ATP luminescence, 24 h; control for the full effect not named in the record; 360,000 compounds, 0.21% hits; active = well fitted falling curve with a large enough effect; inconclusive = small, poorly fitted or top-dose-only effect; inactive = no such curve, though single readings can be large or run the other way;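 also: % is scaled to controls: 0 for no effect and ±100 for the full control effect; nearly all actives have a fitted effect of over 50% in size; the assay follows cell death caused by Vpr and the record does not say whether a fall means rescue or toxicity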
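Fission yeast strain RE007, carrying one chromosomally integrated HIV-1 vpr copy, was seeded at OD 0.01 in PMG+AL medium with 23 nL pinned compound. After 24 h at 30 °C and 99% humidity, viability was read by BacTiter-Glo luminescence.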
* = called active by the depositor; ? = inconclusive; · = no result given; & = joins results of further samples; [ ] = dose if it differs, or a comment. Unless noted, calls follow the shape of the dose curve; as a rule, active means well fitted rising curve with a large enough effect; inconclusive means small, poorly fitted or top-dose-only effect; inactive means no such curve, though single readings can be large or run the other way. Potency is read from the fitted curve at half-maximal effect. Compounds were not picked by outcome; about 4.6% have a hit in one of these screens.

SMILES	Cruzain inh Det	LASV entry inh	NS1 function inh	Marburg entry inh	Cruzain noTriton	SARS PLP yeast	2A StopGo	RE007 growth inh
COc1ccccc1NC(=O)c1cc(N2C(=O)C3C4CCC(C4)C3C2=O)ccc1Cl (stereo not given)	·	·	4.2%	·	·	-9.4%	-15.9%	9.8%
CC(C)c1ccc(C2=CC(c3ccc(C(C)C)cc3)n3nnnc3N2)cc1 (stereo not given)	-4.4%	?	·	·	1.7%	·	-10.5%	·
COc1ccc2c(-c3ccccc3)cc(=S)[nH]c2c1	·	-27.7%	5.8%	?	·	-2.1%	6.2%	-11.2%
CCC(C)(C)n1nnnc1C(c1ccccn1)N1CCCCC1 (stereo not given)	-1.0%	-5.4%	4.4%	4.3%	-13.2%	-7.6%	9.0%	-2.7%
COc1cc(C)nc(N2CCC(C(=O)NCC3CCCO3)CC2)n1 (stereo not given)	·	7.4%	·	0.8%[46.1 µM]	·	0.6%	-19.9%	-10.6%
Cc1ccc(-n2nc(C(=O)Nc3cccc(C#N)c3)c3c4ccccc4n(C)c3c2=O)cc1	0.7%	4.0%[46.1 µM]	·	26.1%[46.1 µM]	?	·	-15.8%	·
O=C1CC(N(O)c2ccccc2)C(=O)N1c1ccc(Cl)c(Cl)c1 (stereo not given)	·	·	-3.1%	·	·	-3.8%	10.6%	15.3%
CCC(C)[C@H](NC(=O)c1cn(CC)c2cc3c(cc2c1=O)OCO3)C(=O)NCCCn1ccnc1 (stereo not given in full)	·	·	-5.7%	·	·	1.9%	-5.3%	-1.4%
COc1cc(C(=O)c2ccccc2C(=O)O)c(OC)c2c1CCCC2	·	12.1%	·	?	·	·	-18.2%	22.0%
OCCC1CN(Cc2ccc3nonc3c2)CCN1Cc1ccsc1 (stereo not given)	·	6.7%	1.8%	?	·	0.0%	0.0%	-6.8%
Oc1ccc(COCc2ccccc2)c2cccnc12	-2.9%	?	-93.1%	?	-3.9%	-2.8%&-28.1%	-0.6%	?
O=C1NN(c2ccc(Cl)c(Cl)c2)C(=O)/C1=C/c1ccc(-c2ccccc2C(=O)O)o1	·	4.4%[46.1 µM]	1.0%	12.6%[46.1 µM]	·	0.3%	6.2%	1.4%
Cc1ccc(C(=O)n2c(-c3ccccc3)cnc2SCC(=O)Nc2ccc(C)cc2C)cc1	-3.7%	?	13.3%	?	?	-2.9%	-15.2%	20.4%
CC(C)(O)C#Cc1ccc(C(=O)NCCC(=O)O)s1	·	-20.8%	·	1.9%	·	1.2%	-6.6%	5.9%
CCOC(=O)CSc1nc2cc(S(=O)(=O)Nc3ccccc3OC)ccc2o1	-3.1%	3.5%	-13.4%	?	-1.6%	-4.6%	-21.4%	-14.3%
COc1ccc(CNC(=O)Cn2c(=O)oc3cc(S(=O)(=O)NCc4ccccc4)ccc32)cc1	-4.2%	-19.8%[46.1 µM]	·	·	-1.4%	·	3.8%	·
CC(C)(C)c1cc(N2CCOCC2)n2ncc(-c3ccc(Cl)cc3)c2n1	·	?	1.2%	?	·	-1.3%	5.2%	-3.6%
CC(NC(=O)CCc1nnc(-c2ccccc2)o1)c1ccccc1 (stereo not given)	·	·	-3.0%	·	·	-1.5%	52.1%[activator]	1.4%
Cc1ccc(OCC(=O)NC2=NCCS2)cc1	2.3%	?	18.5%	?	-0.3%	-8.2%	47.8%[activator]	-7.9%
CCOC(=O)CC1C(=O)NCCN1S(=O)(=O)c1ccc(Cl)c(Cl)c1 (stereo not given)	-3.9%	-2.4%	5.1%	-5.7%	7.2%	1.7%	1.5%	12.6%
COc1ccccc1N1CCN(c2ccc(-c3nc(-c4ccccc4)no3)cc2[N+](=O)[O-])CC1	-4.7%	-0.5%[46.1 µM]	·	?	0.3%	·	-13.1%	·
COC(=O)CC1COc2ccccc2N1C(=O)/C=C/c1ccccc1 (stereo not given)	·	·	-11.7%	·	·	-1.4%	2.0%	0.6%
Cc1ccc(NC(=O)COC(=O)/C=C/c2c(C)nn(-c3ccc(F)cc3)c2Cl)cc1F	-3.9%	3.1%	-0.2%	0.2%	?	11.2%	1.5%	10.7%
CC(=O)N1CCc2cc(S(=O)(=O)CCC(=O)NCCc3ccc(Cl)cc3)ccc21	·	·	-1.7%	·	·	1.8%	?	11.0%
CC1(C)CC(C(=O)Nc2nccs2)CCO1 (stereo not given)	0.9%	19.0%	-0.8%	0.3%	-0.5%	2.4%	0.3%	2.9%
CCCCn1c(N)c(N(CC)C(=O)c2ccc(Cl)c(Cl)c2)c(=O)[nH]c1=O	·	20.7%[46.1 µM]	2.1%	-9.3%[46.1 µM]	·	-3.4%	4.6%	3.7%
Cc1ccc(CNC(=O)Cn2c(=O)n(-c3cccc(Cl)c3)c(=O)c3sc4ccccc4c32)cc1	-3.0%	-15.9%[46.1 µM]	·	?	12.6µM*	·	-24.4%	·
O=C(CNc1ccccc1N1CCCC1=O)Nc1cc(Cl)ccc1-n1cncn1	·	-0.2%	·	18.8%[46.1 µM]	·	-2.8%	4.7%	-2.2%
C/C(=N\NC(=O)c1nn(C)c(C)c1Br)c1ccc(NC(=O)c2ccoc2C)cc1	-9.1%	-18.3%	3.4%	-9.9%	?	-2.3%	29.0%	-18.8%
COc1cccc(C(=O)OCC(=O)Nc2ccc3c(c2)OCCO3)c1	·	0.0%[46.1 µM]	·	6.7%[46.1 µM]	·	8.4%	31.0%[activator]	7.4%
CCN1C(=O)/C(=C2/C=CC=CN2C)SC1=S	-10.1%	?	1.8%	5.1%	-27.2%	-8.8%	-2.3%	8.8%
COc1ccc(OCc2cc(C(=O)N(C)Cc3cc(C)no3)no2)c(Cl)c1	·	·	-6.1%	·	·	-1.9%	19.9%	6.6%
O=S(=O)(Oc1ccccc1N1CCCCC1)c1ccccc1	·	-2.5%[46.1 µM]	0.5%	?	·	-2.3%	-0.4%	-8.8%
Cc1ccc(S(=O)(=O)N2CCN(S(=O)(=O)N(C)C)CC2)c(C)c1	-2.9%	-16.2%	2.1%	-1.9%	1.1%	-2.8%	·	-8.1%
CC(C)CCNC(=O)c1ccc(CSCc2cccc(F)c2)o1	-5.9%	?	-124.1%	10.6%	5.2%	-3.8%	3.4%	-3.3%
Nn1c(Cc2cccc3ccccc23)nnc1SCc1ccccc1	-7.8%	-11.3%	-7.2%	-2.6%	-9.2%	9.2%	0.8%	3.7%
CCc1ccc(-n2c(=O)c3c(C)c(C)sc3n(CC(=O)NCc3ccc(C)cc3)c2=O)cc1	5.5%	-4.6%[46.1 µM]	·	0.9%[46.1 µM]	4.0%	·	-7.0%	·
CCOCCCNC(=O)C1CCN(S(=O)(=O)N2CC(C)CC(C)C2)CC1 (stereo not given)	4.8%	-12.1%	-8.1%	-0.7%	-4.2%	-2.7%	15.7%	11.4%
Cn1nc(NC(=O)CC(C)(C)CC(=O)O)c2ccccc21	·	16.0%	-1.1%	?	·	0.3%	1.0%	6.4%
Cc1cc(C(=O)CN2CCN(CC(=O)Nc3ccc(F)cc3)CC2)c(C)n1C1CC1	·	-6.1%	·	-13.4%	·	1.4%	-7.0%	-0.1%
O=C(CSc1n[nH]c(-c2cccs2)n1)N1CCN(S(=O)(=O)c2ccccc2)CC1	-1.8%	7.7%	0.9%	-1.4%&4.8%	-1.7%	1.0%	-9.3%	19.9%[3.69 µM]
COc1ccc(-c2nc(C)c(CCNC(=O)c3ccc(F)c(F)c3)s2)cc1	-16.0%	3.6%[46.1 µM]	·	·	7.6%	·	23.8%	·
COc1ccc(Br)cc1/C=C(\C(=O)O)c1ccc(S(=O)(=O)N2CCCC2)s1	·	-1.4%	·	3.2%	·	-0.4%	-3.1%	1.4%
CC(C)c1ccc(NC(=O)CCNC(=O)Cn2cnc3ccccc3c2=O)cc1	·	-24.1%	-12.5%	?	·	6.6%	4.4%	2.1%
CCc1c(C)c2ccc(OCC(=O)OC)cc2oc1=O	2.0%	-3.4%	-17.9%	0.0%	-6.1%	3.4%	11.0%	-16.6%
CCCC/C(C)=N/NC(=O)C(=O)NCCc1ccccc1	6.9%	14.1%	-6.0%	-23.0%	-1.8%	-3.9%	-10.8%	1.7%
CC(C)Oc1ccc(C(CC(=O)N2CCOCC2)C(C)C)cc1 (stereo not given)	·	·	9.0%	·	·	2.7%	-13.9%	3.9%
Cc1ccc(S(=O)(=O)N(CC(=O)Nc2cc(C)ccc2C)C(=O)N2CCN(C)CC2)cc1	·	8.2%	·	11.7%	·	-11.8%	-12.9%	4.6%
CN(C)C(=O)CSc1nnc(-c2cccnc2)n1-c1ccccc1	5.0%	·	?	·	-2.9%	0.2%	-7.6%	-5.3%
CN1CCc2c(sc3nc(SCC(=O)N4CCOCC4)nc(N)c23)C1	-14.9%	-2.5%	?	?	-12.2%	2.4%	14.3%	12.9%
The results go on:
SMILES	Cruzain inh Det	LASV entry inh	NS1 function inh	Marburg entry inh	Cruzain noTriton	SARS PLP yeast	2A StopGo	RE007 growth inh
Cc1ccc(CCNC(=O)c2ccc3nc4ccc(Cl)cc4c(=O)n3c2)cc1	·	·	3.7%	·	·	0.5%	-10.3%	5.8%
C[C@H](O)[C@H]1CC[C@H]2[C@@H]3CCC4=CC(=O)CC[C@]4(C)[C@H]3CC[C@]12C	2.4%	-17.2%	-44.0%	5.9%	5.1%	-49.6%	-12.4%	-16.4%[18.4 µM]
COc1ccccc1N1CCN(C(=O)CC(NC(=O)c2ccccc2Cl)c2ccccc2)CC1 (stereo not given)	·	-1.9%	·	?	·	-0.8%	-17.2%	-9.3%
O=C1C(Cc2ccccc2)NC(=S)N1c1ccccc1 (stereo not given)	-3.0%	18.7%	1.2%	23.7%	-2.1%	-1.3%	7.7%	14.1%
COc1ccc(/C(C)=N/NC(=O)c2cccc(S(=O)(=O)N3CCCC3)c2)c(O)c1	·	?	·	?	·	-5.5%	-25.6%	1.0%
COc1ccc(CCNC(=O)C/C(C)=N/NC(=O)COc2ccc(C)cc2Br)cc1OC	·	·	-2.2%	?	·	-5.1%	?	-3.3%
CCc1ccc(S(=O)(=O)c2nnn3c2nc(NC2CCCC2)c2sccc23)cc1	-1.6%	-7.4%[46.1 µM]	·	·	14.3%	·	-26.3%	·
CC(=O)Nc1nn(C)c2nc3cc(C)ccc3cc12	-3.9%	13.1%	-48.8%	4.1%	-5.4%	-5.3%	-3.3%	6.6%
O=C1CCCN1CC(CN1CCOCC1)Sc1nc2ccccc2c(=O)n1-c1ccccc1 (stereo not given)	-1.9%	?	-16.3%	?	25.2%	-2.1%	-8.6%	3.5%
CC(=O)c1cn(CC(=O)Nc2ccccc2C(F)(F)F)c2ccccc12	·	·	-0.2%	·	·	5.1%	?	-3.4%
